# Cruzain inh noDet: qHTS Assay for Promiscuous and Specific Inhibitors of Cruzain (without detergent) | Cruzipain (Trypanosoma cruzi), P25779 | purified cruzain, Z-FR-AMC fluorescence, no detergent | Potency, µM, inactives show max response, negative = inhibition, actives largely listed as inhibitors | hit rate 2.3% among 200,000 | AID 1476, 2009;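 further: plate controls were enzyme without inhibitor for no effect and buffer without enzyme for full effect; nearly all actives have a fitted effect of over 40% in size; top concentration of the series not given in the record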
# Target sequence (P25779 123-467 limits assumed): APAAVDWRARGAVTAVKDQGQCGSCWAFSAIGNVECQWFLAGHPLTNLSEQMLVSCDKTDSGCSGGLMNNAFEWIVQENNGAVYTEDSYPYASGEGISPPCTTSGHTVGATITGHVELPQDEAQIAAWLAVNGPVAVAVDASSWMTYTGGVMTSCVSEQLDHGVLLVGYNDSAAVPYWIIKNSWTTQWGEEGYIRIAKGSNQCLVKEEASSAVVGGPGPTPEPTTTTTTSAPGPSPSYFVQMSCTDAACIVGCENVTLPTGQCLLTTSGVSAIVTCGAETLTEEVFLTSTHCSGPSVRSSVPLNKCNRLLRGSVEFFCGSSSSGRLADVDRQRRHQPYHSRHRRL
#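 Purified cruzain at 1.5 nM, pre-incubated 15 min with compound at room temperature in 100 mM sodium acetate pH 5.5, 5 mM DTT, 0.00005% Triton X-100. Reaction started with 2 uM Z-FR-AMC; AMC fluorescence increase over 60 s gives rate.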
# StopGo reporter: High Throughput Screening for Foot and Mouth Disease Virus Antivirals | human cells with a luciferase reporter of 2A StopGo recoding; control for the full effect not named in the record | Potency, µM (series often up to 57.9 µM), for inactives: at the top dose signal change, negative = less light | hit rate 1.2% among 410,000; active = well fitted falling curve with a large enough effect; inconclusive = small, poorly fitted or top-dose-only effect; inactive = no such curve, though single readings can be large or run the other way; tested in HEK293T cells; further: on the % scale 0 is the no-effect control and ±100 the full control effect; nearly all actives have a fitted effect of over 45% in size; luciferase light after 4 h
# Cruzain inh Det: qHTS Assay for Promiscuous and Specific Inhibitors of Cruzain (with detergent); Cruzipain (Trypanosoma cruzi), P25779; purified cruzain, Z-FR-AMC fluorescence, 0.01% Triton; Potency, µM, for inactives: max response, negative = inhibition, actives largely listed as inhibitors; hit rate 0.43% among 200,000;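 further: plate controls were neutral wells for no effect and buffer without enzyme for full effect; nearly all actives have a fitted effect of over 40% in size; top concentration of the series not given in the record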
#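 Sodium acetate buffer (100 mM, pH 5.5) containing 5 mM DTT and 0.01% Triton X-100 hosted 1.5 nM cruzain and test compound for 15 min at room temperature. Cleavage of 2 uM Z-FR-AMC was then tracked by fluorescence.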
# Marburg entry inh: qHTS for inhibitors of binding or entry into cells for Marburg Virus; Marburg virus pseudotyped entry inhibition, cell reporter; control for the full effect not named in the record; about a third of the inactives were read at about 46 µM; Potency, µM (series often up to 37.8 µM), without a hit: at the highest dose activity change, negative = inhibition, actives largely listed as inhibitors; hit rate 1.8% among 300,000; active = well fitted inhibition curve with a large enough effect; inconclusive = small, poorly fitted or top-dose-only effect, or effect the other way; inactive = flat fitted curve, though single readings scatter; tested in HEK293 cells; about a fifth of its hits are not listed in these tables; further: on the % scale 0 is the no-effect control and ±100 the full control effect; luciferase read-out
# RE007 growth inh: qHTS Assay for Inhibitors of the HIV-1 protein Vpr. S. pombe RE007 Vpr strain, BacTiter-Glo ATP luminescence, 24 h; control for the full effect not named in the record. hit rate 0.21% among 360,000. Potency, µM (doses to about 92.2 µM), for the others: at the top dose activity change, negative = less growth. AID 651644, 2012; active = well fitted falling curve with a large enough effect; inconclusive = small, poorly fitted or top-dose-only effect; inactive = no such curve, though single readings can be large or run the other way;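 further: on the % scale 0 is the no-effect control and ±100 the full control effect; nearly all actives have a fitted effect of over 50% in size; the assay follows cell death caused by Vpr and the record does not say whether a fall means rescue or toxicity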
#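 Fission yeast RE007 carrying one integrated HIV-1 vpr copy, seeded at OD 0.01 in PMG+AL medium with 23 nL pinned compound. Grown 24 h at 30 degrees; viability read by BacTiter-Glo luminescence after 5 min.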
# SARS PLpro yeast: qHTS of Yeast-based Assay for SARS-CoV PLP. S. cerevisiae expressing SARS-CoV PLpro, growth rescue; control for the full effect not named in the record. Potency, µM (highest dose often 32.9 µM), for inactives: top-dose activity, positive = growth rescue. hit rate 0.19% among 330,000; active means well fitted rising curve with a large enough effect; inconclusive means small, poorly fitted or top-dose-only effect; inactive means no such curve, though single readings can be large or run the other way; further: 0% is about no effect; nearly all actives have a fitted effect of over 55% in size; growth read by luminescence after 48 h
# NS1 function inh: qHTS Assay for Inhibitors of Influenza NS1 Protein Function; S. cerevisiae slowed by influenza A NS1, growth recovery by OD600; Potency, µM (doses to about 46.1 µM), for inactives: at the highest dose activity, positive = more growth; hit rate 0.4% among 270,000; AID 2326, 2010; active means well fitted rising curve with a large enough effect; inconclusive means small, poorly fitted or top-dose-only effect; inactive means no such curve, though single readings can be large or run the other way; further: nearly all actives have a fitted effect of over 50% in size
#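 Growth recovery, yeast-based: influenza A NS1 expressed in S. cerevisiae causes slow growth, and suppressors are detected by OD600. The parent strain without NS1 is used as positive control.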
# Lassa entry inh: qHTS for Inhibitors of binding or entry into cells for Lassa Virus; Lassa virus pseudotype entry inhibition, cell reporter; control for the full effect not named in the record; Potency, µM (doses to about 37.9 µM), without a hit: at the highest dose activity change, negative = inhibition, most hits filed as inhibitors; hit rate 1.2% among 300,000; active means well fitted inhibition curve with a large enough effect; inconclusive means small, poorly fitted or top-dose-only effect, or effect the other way; inactive means flat fitted curve, though single readings scatter; tested in HEK293 cells; further: on the % scale 0 is the no-effect control and ±100 the full control effect; nearly all actives have a fitted effect of over 50% in size; luciferase read-out
# Active calls of the source: *; ? = inconclusive; . = no result given; & = joins results of further samples; [ ] = another dose, or the depositor's remark. Unless noted, the call rests on the fitted dose curve; in most records, active means well fitted curve in the direction sought with a large enough effect; inconclusive means small, poorly fitted or top-dose-only effect, or another doubt; inactive means no such curve, though single readings can be large; an effect the other way counts as inactive or inconclusive. Potency means the concentration at half of the fitted maximal effect.
mol,Lassa entry inh,StopGo reporter,SARS PLpro yeast,NS1 function inh,RE007 growth inh,Cruzain inh noDet,Marburg entry inh,Cruzain inh Det
CCc1ccc(N(CC(=O)Nc2ccccc2C(=O)N2CCOCC2)S(C)(=O)=O)cc1,0%,-19%,9%,1%,0%,-2%,?,0.3%
COc1cccc(OCc2nc3c4cnn(-c5ccccc5)c4ncn3n2)c1,-15%,6%,-1%,-4%,-15%,25µM*,-8%,8.2%
COC(=O)c1sc(OC)cc1OCc1ccc(C)cc1,1%,-21%,2%,-1%,7%,-6%,21%,3.2%
COc1ccc(OC)c2[nH]c(=O)c(CCNS(=O)(=O)c3ccccc3)cc12,1%,-23%,5%,-8%,27%,-12%,0%,4.9%
CC(=O)Nc1ccc(C)cc1-c1nc2ccccc2n(CC(=O)c2ccc(C)c(C)c2)c1=O,2%[46.1 µM],-12%,.,.,.,-16%,?,-3.9%
CC(=O)c1ccc(NC(=O)c2cccs2)cc1,-12%,.,-32%,-54%,-3%,-12%,-16%,1.9%
CCN1CCN(C(=O)c2cc3cc(Cl)ccc3[nH]2)CC1,16%[46.1 µM],5%,-2%,4%,2%,.,3%[46.1 µM],.
CCn1c(SCC(=O)c2ccc3c(c2)OCCO3)nnc1C(C)C,4%,30%,2%,-7%,5%,-3%,2%,-2.4%
CCN(Cc1ccccc1)c1ccc(/C=N/N=C(N)N)cc1,8.2µM*,?,3%,5%,74%,-24%,6.5µM*,-9.8%
COc1ccc2c(c1)CCc1c(C(=O)NCCN3CCOCC3)noc1-2,-27%,-9%,-2%,-10%,-17%,-17%,11%,-19%
CCNS(=O)(=O)c1ccc(NC(=O)CSc2nc(-c3ccco3)cc(C(F)(F)F)n2)cc1,?,15%,.,.,.,-13%,?,-9.3%
COc1ccc(S(=O)(=O)Nc2cc3c(C(C)=O)c(C)oc3c3ccccc23)cc1,?,0%,11%,15%,-16%,-15%,?,-3.4%
CCN1CCN(CC(=O)Nc2ccc(OC(F)(F)F)cc2)CC1,9%,-6%,0%,7%,-1%,.,1%,.
CC1CCCC(NC(=O)COC(=O)COc2ccccc2Cl)C1C (stereo not given),-4%,-10%,-4%,.,18%,.,-2%[14.2 µM],.
CC(C)c1nnc(NC(=O)C2CCCO2)s1 (stereo not given),.,19%,0%,5%,-13%,.,.,.
CCC(=O)C1=C(c2cccc(OC)c2)N(C(=O)CC)n2c(nnc2C2CCCCC2)S1,?,-19%,.,.,.,-6%,.,-3.5%
Cc1cc(O)c(N)c(C)c1Cl,1%,-3%,-2%,.,3%,.,4%[46.1 µM],.
CC(=O)c1c(C)[nH]c(C(=O)OCc2cccc(Cl)c2)c1C,?,-17%,-6%,.,5%,.,?,.
Cc1ccc(CN2CCC(NC(=O)c3ccccc3)CC2)cc1,-14%[46.1 µM],-10%,0%,-2%,6%,.,?,.
NS(=O)(=O)c1ccc(NC(=S)N2CCN(Cc3ccc4c(c3)OCO4)CC2)cc1,-11%,?,0%,6%,-12%,.,-13%,.
O=C(Nc1sc2c(c1C(=O)NCc1ccco1)CCCC2)c1ccc2c(c1)OCO2,59%[14.3 µM],70%[activator],-6%,16%,-9%,?,0%&12%,-11%
CCOC(=O)c1ccc(NS(=O)(=O)c2cc(-c3onc(C)c3C)ccc2C)cc1,3%[46.1 µM],56%[activator],.,.,.,1%,.,-9.3%
CCOc1ccc(CCNC(=O)Cn2ncc3c(=O)oc4ccc(C)cc4c32)cc1,17%[46.1 µM],-9%,.,.,.,-6%,-2%[46.1 µM],0.0%
COC(=O)c1ccc(Cn2cc([N+](=O)[O-])cn2)cc1,13%,3%,0%,1%,1%,.,9%[46.1 µM],.
CC1CCCN(CCCNC(=O)C2CCC(CNS(=O)(=O)c3cccc4nsnc34)CC2)C1 (stereo not given),5%[46.1 µM],16%,-4%,13%,-1%,.,1%[46.1 µM],.
CC(=O)N1Cc2ccccc2CC1C(=O)NCc1ccccc1F (stereo not given),-9%,-9%,0%,2%,-14%,.,-6%,.
COc1ccc(N2CCN(Cc3nc4c(c(=O)n(C)c(=O)n4C)n3CCc3ccccc3)CC2)cc1,.,-16%,8%,-2%,14%,?,.,-0.3%
CCN(CC)c1ccc(/C=N/NC(=O)c2cc(C)nc3ccccc23)cc1,?,?,1%,-4%,-1%,.,?,.
Cc1nc(N2CCCC2)c2c(C(=O)Nc3ccc(C)c(Cl)c3)c(C)oc2n1,22%[46.1 µM],-9%,.,.,.,-7%,.,-1.0%
C=CCn1c(=O)c2ccccc2n2c(=S)[nH]nc12,.,0%,3%,3%,10%,.,.,.

# Rewritten with values under each structure: part of the list above.
# Values in the order – Lassa entry inh, StopGo reporter, SARS PLpro yeast, NS1 function inh, RE007 growth inh, Cruzain inh noDet, Marburg entry inh, Cruzain inh Det
> COC(=O)c1sc(OC)cc1OCc1ccc(C)cc1
  1%, -21%, 2%, -1%, 7%, -6%, 21%, 3.2%
> COc1ccc(OC)c2[nH]c(=O)c(CCNS(=O)(=O)c3ccccc3)cc12
  1%, -23%, 5%, -8%, 27%, -12%, 0%, 4.9%

# Other compounds.
mol,Lassa entry inh,StopGo reporter,SARS PLpro yeast,NS1 function inh,RE007 growth inh,Cruzain inh noDet,Marburg entry inh,Cruzain inh Det
CCOC(=O)c1cccc(NC(=O)c2cc3c(=O)n(Cc4cccnc4)ccc3nc2C)c1,-29%[46.1 µM],-23%,.,.,.,?,.,-10%
Cc1cc(N)c(NC2=CC(=O)CC(C)(C)C2)cc1C,3%,8%,20%,?,12%,-11%,?,-3.3%
O=C(NCC1CCCO1)c1ccc(COCC(F)(F)C(F)F)cc1 (stereo not given),3%,.,5%,4%,-1%,-2%,12%,7.0%
CN(C)c1cccc(C(=O)NN2C(=O)NC3(CCCCC3)C2=O)c1,18%,37%[activator],3%,.,9%,.,?,.
O=C(CCN1C(=O)/C(=C\c2ccc(F)cc2)SC1=S)Nc1ccccc1,.,20%,0%,19%,-7%,.,?,.
Cc1ccc(N(C)C(=O)c2ccc(CNc3c(N4CCC(C)CC4)c(=O)c3=O)cc2)cc1,1%,-24%,-2%,0%,-12%,.,-22%[46.1 µM],.
CC1(C)CC2(CCO1)NCCN1C(=O)CSC12 (stereo not given),3%,-21%,4%,4%,7%,-4%,18%[46.1 µM],-2.6%
COc1ccc(N2CCN(C(CNS(=O)(=O)c3ccc(C)cc3)c3ccccc3)CC2)cc1 (stereo not given),?,4%,1%,.,4%,.,?,.
O=S(=O)(c1ccc(Br)cc1)N1CCCC1c1nc2ccccc2s1 (stereo not given),13%,?,-6%,-6%,-7%,7%,4%[46.1 µM],-2.8%
COc1ccc(-n2c(SC)nnc2-c2c[nH]c3ccccc23)cc1,.,-15%,4%,6%,7%,?,.,6.4%
COc1ccc(-c2nc(N)n(C(=O)c3cccs3)n2)cc1,7%,-9%,-8%,.,-10%,.,-15%,.
CCN(C(=O)COC(=O)CNS(=O)(=O)c1ccc2ccccc2c1)C1CCCCC1,1%,-5%,.,.,-6%,.,0%[46.1 µM],.
Fc1ccc(CSc2nnc(-c3ccncc3)o2)cc1,9%,12%,-1%,-4%,3%,.,-2%[46.1 µM],.
CN(CC(=O)Nc1ccc(F)cc1)C(=O)CCc1ccccc1,10%,48%[activator],-17%,20%,7%,.,-2%[46.1 µM],.
CN(C)N(C)C(=O)C(O)(c1ccccc1)c1ccccc1,21%[46.1 µM],1%,0%,-5%,0%,.,-5%[46.1 µM],.
Cc1ccc(S(=O)(=O)N2CCN(C(=O)c3sccc3C)CC2)cc1,?,-9%,-2%,.,16%,.,?,.
CN1CCCN(S(=O)(=O)c2ccc(Cl)c(Cl)c2)CC1,-16%[46.1 µM],2%,0%,.,-10%,.,11%[46.1 µM],.
S=c1[nH]nc(-c2ccc3ccccc3n2)n1-c1ccc2ncccc2c1,-2%,-22%,-13%,25%,7%,-25%,19%,-14%
Cc1ccc(NC(=O)c2cc(-c3cccs3)nc3ccccc23)c(C)c1,5%[46.1 µM],?,.,.,.,?,?,-8.2%
CCN(CCCNC(=O)CN1C(=O)COc2ccc(S(=O)(=O)N3CCC(C)CC3)cc21)Cc1ccccc1,?,7%,14%,-2%,3%,.,?,.
COC(=O)C1CN(C(=O)COc2ccccc2)c2ccccc2O1 (stereo not given),.,-9%,-3%,3%,-6%,.,.,.
CCOC(=O)C1(CC2CC2)CCN(S(=O)(=O)C[C@]23CC[C@H](CC2=O)C3(C)C)CC1,7%[46.1 µM],20%,-1%,-6%,4%,.,-22%[46.1 µM],.
COc1ccc(C)cc1N1CC(C(=O)OCc2nc(N)nc(Nc3ccccc3C)n2)CC1=O (stereo not given),-24%,-12%,0%,.,-34%,.,-2%[46.1 µM],.
COCCCNS(=O)(=O)c1ccc(SC)cc1,-4%,37%[activator],-4%,2%,1%,3%,-1%,-0.1%
NC(=O)CC(NC(=O)Cc1ccc(Br)cc1)c1ccc(N2CCCCCCC2)c([N+](=O)[O-])c1 (stereo not given),.,-22%,7%,2%,4%,.,.,.
Cc1ccc(C(=O)c2cn(Cc3ccccc3F)c3cc4c(cc3c2=O)OCCO4)cc1,1%[46.1 µM],-17%,.,.,.,-7%,-1%[46.1 µM],4.1%
COc1ccc(CC(=O)Nc2ccc(-c3cn4ccc(C)cc4n3)cc2)cc1,5%,46%[activator],-9%,0%,-13%,14%,-5%,-29%

# Assay outcomes (PubChem)
